# CapD inh – Bacillus anthracis CapD inhibitors, primary screen, biochemical, fluorescence intensity | CapD gamma-glutamyltranspeptidase (Bacillus anthracis Ames Ancestor) | purified CapD enzyme, fluorescence intensity read-out; active compounds read low; some hits fall short of the stated cut | z-score (no concentration beside the values) | hit rate 0.23% among 140,000 | AID 492967, 2010;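 active means z-score under -4 in either of two replicates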;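 further: stock transfer was 100 nL into about 40 µL; score is relative to mean and spread of the plate; one replicate is shown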
# AID504770 – growth inhibition of E. coli YBA685, primary screen, V. cholerae RctB inhibitors | E. coli YBA685 rctB-dependent plasmid, OD600 growth, 3 h; active compounds read low | z-score (test concentration not listed) | AID 504770, 2011 | hit rate 0.27% among 130,000;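 active means z-score under -2 on both plates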;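 further: wells of about 30 µL received 100 nL stock; score is relative to mean and SD of the test wells; the first replicate is given; strong numbers were not always called active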
# An asterisk follows results filed as active; / = not tested or not shown; & = joins results of further samples. A portion of the library; count on the stated rates, not on these rows.
# Start of the data: the first 4 entries as a preview:
No.	compound	CapD inh	AID504770
1	CCOC(=O)C1=C(C)C2C3C(=O)N(c4ccccc4C)C(=O)C3C1(C)C1C(=O)N(c3ccccc3C)C(=O)C21 (stereo not given)	-0.25	/
2	COc1ccccc1NC(=O)C1CCN(C(=O)c2ccccc2)CC1	/	-0.35
3	CC(C)C12CN3CC(C(C)C)(CN(C1)C3c1ccc(Br)cc1)C2=O (stereo not given)	0.25	/
4	CCN(Cc1ccccc1)S(=O)(=O)c1ccc(F)c(C(=O)Nc2ccc(Cl)cc2)c1	-0.555	/

# This part in full, previewed entries included:
No.	compound	CapD inh	AID504770
1	CCOC(=O)C1=C(C)C2C3C(=O)N(c4ccccc4C)C(=O)C3C1(C)C1C(=O)N(c3ccccc3C)C(=O)C21 (stereo not given)	-0.25	/
2	COc1ccccc1NC(=O)C1CCN(C(=O)c2ccccc2)CC1	/	-0.35
3	CC(C)C12CN3CC(C(C)C)(CN(C1)C3c1ccc(Br)cc1)C2=O (stereo not given)	0.25	/
4	CCN(Cc1ccccc1)S(=O)(=O)c1ccc(F)c(C(=O)Nc2ccc(Cl)cc2)c1	-0.555	/
5	O=C(O)C1CC(=O)N(Cc2ccc(C(F)(F)F)cc2)C1 (stereo not given)	0.595	/
6	CC(=O)C1=NOC(CNC(=O)c2c(-c3ccccc3Cl)noc2C)C1 (stereo not given)	-0.135	/
7	CCOC(=O)C1=C(O)/C(=C/c2ccc(O)c(OCC)c2)SC1=Nc1ccccc1	-0.63	/
8	O=C(NC1=C(Cl)C(=O)c2ccccc2C1=O)OCCCc1ccccc1	-0.695	/
9	COc1ccc(CCNS(=O)(=O)c2c(C)cc(C)c(-n3cnnn3)c2C)cc1OC	/	-0.45
10	O=C(Cn1c(C(F)(F)F)nc2ccccc21)Oc1ccc(Cl)cc1Cl	-0.26	/
11	CCC1(C(=O)c2ccccc2)C(c2ccc(Br)cc2)C1(C(=O)OC)C(=O)OC (stereo not given)	-0.215	/
12	Cn1c(Cn2c(=O)sc3ccccc32)nnc1SCC(=O)Nc1ccc2c(c1)OCO2	/	0.2
13	Cc1ccc(Sc2c(-c3ccc(Br)cc3)nc3ccccn23)cc1	22.9	/
14	CCN(CC)c1ccc2cc(-c3nc(-c4ccccc4)cs3)c(=Nc3ccc(OC)cc3)oc2c1	0.265	/
15	Cc1nc(N2CCC(C)CC2)c2c(C)c(C(=O)Nc3ccc4c(c3)OCCO4)sc2n1	-0.19	/
16	CN(Cc1ccccc1)C(=O)CSc1ncn[nH]1	/	-1
17	CN1CCN(c2nsc(NO)c2Nc2ccc(Br)cc2)CC1	-2.31	0.1
18	Cc1ccc(NC(=O)NC2CC2)cc1C	0.96	-0.15
19	Cc1oc2c(CN(C)C)c(O)ccc2c(=O)c1-c1ccccc1Cl	/	-0.05
20	CCCNc1c(NS(=O)(=O)c2ccc(NC(=O)CC)cc2)c(=O)oc2ccccc12	0.95	-0.5
21	CC(C)n1cc(/C=C(\C#N)S(=O)(=O)c2ccccc2)c2ccccc21	-1.34	-0.3
22	O=C(O)CCCC(=O)Nc1ccc(Br)cc1	-0.125	-0.3
23	CCN1/C(=C/C2=CC(=O)CC(C)(C)C2)Sc2ccccc21	37.5	1.6
24	CCc1ccc(NC(=O)Cc2csc(C)n2)cc1	-0.185	0.65

# Entries by screen from above:
# Entries 1 to 6 in CapD inh read -0.25, /, 0.25, -0.555, 0.595, -0.135

# Other results:
No.	compound	CapD inh	AID504770
25	O=C(O)CN1C(=O)/C(=C\c2cc([N+](=O)[O-])ccc2Cl)SC1=S	-1.45	/
26	Nc1oc(-c2ccc(Cl)cc2)cc1C(=O)c1ccc(Cl)cc1	0.445	0.05
27	CC(=O)N1CCC(N(C2CC2)S(=O)(=O)c2ccc([N+](=O)[O-])cc2)CC1	-0.265	/
28	Cc1ccc(S(=O)(=O)N2CCN(C(C)CC(=O)O)CC2)cc1 (stereo not given)	/	-1.9
29	C=CCNc1nc(C(=O)OCc2c(C)noc2C)cs1	/	-0.15
30	CCOC(=O)C1=C(N)n2c(s/c(=C\c3ccc(F)cc3)c2=O)=C(C#N)C1c1ccc(F)cc1 (stereo not given)	-0.065	/
31	CCOC(=O)N1CCN(c2nc(-c3ccccc3)c3cc(C)ccc3n2)CC1	-0.945	/
32	NNc1cccc(C(F)(F)F)c1	6.11	-1.1
33	CCNc1nnc(-c2ccccc2OC)s1	68.3	-0.45
34	Cc1nc(-c2ccccc2)sc1C(=O)NCC1CCCO1 (stereo not given)	1.41	0.5
35	CC(=O)NCc1ccc(C2CCCCC2)cc1	-0.495	-0.8
36	COc1cc(Cl)c(C)cc1NCC(=O)Nc1cccnc1Cl	-0.3	0.65
37	CCOC(=O)C1CCCN(C(=O)c2cccc(NC(=O)C(CC)CC)c2)C1 (stereo not given)	0.205	-0.25
38	Cn1nc(C(F)(F)F)c(C#N)c1Oc1ccccc1	-0.16	2.35
39	Cc1nc(COc2ccccc2Cl)sc1C(=O)/C=C/N(C)C	6.79	-0.5
40	CCN(CC)C(=O)C12CC3CC(CC(Cl)(C3)C1)C2	-0.015	0
41	S=C(Nc1ccccn1)NC1CC2CCC1C2 (stereo not given)	/	2.4
42	CC(C)NC(=O)COc1cccc2ccccc12	/	-0.05
43	O=c1oc2c(CN3CCCCC3)c(O)ccc2cc1-c1nc2ccccc2s1	-0.205	/
44	CSc1ccc(/C=N/NC(=O)C2CC2)cc1	15.8	-0.8
45	O=C(/C=C/c1cccc(F)c1)NCCCn1ccnc1	-0.285	0
46	Cc1ccc(/C=N/NC(=O)CN(c2c(C)n(C)n(-c3ccccc3)c2=O)S(=O)(=O)c2ccccc2)cc1	-0.405	/
47	NNc1ccccn1	7.65	1.35
48	Cc1onc(-c2c(Cl)cccc2Cl)c1C(=O)NCCS(=O)(=O)c1ccccc1	-0.26	1.9
49	Cc1ccc(/C=C/C(=O)Nc2ccc3nc4n(c(=O)c3c2)CCCC4)cc1	-0.88	-0.35
50	CCn1c(=O)c(=O)[nH]c2cc(S(=O)(=O)N(C)C)ccc21	/	-0.1
51	O=C(Nc1ccccc1)N1CCC2(CC1)OCCO2	1.94	1.35
52	NS(=O)(=O)c1ccc(C2CCCCC2)cc1	-0.435	1.7
53	COc1cc(C2C(C#N)=C(N)Oc3c2c(=O)oc2ccccc32)cc(OC)c1OC (stereo not given)	-0.01	/
54	CC[N+](CC)=c1ccc2ccc(O)cc2o1	6.77	0.25&0.55
55	CCN(CC)S(=O)(=O)c1ccc(-c2nc3ccccc3s2)cc1	-0.125	2.65
56	C=CCOc1ccccc1COC(=O)N1CCCC1C(=O)OCc1ccccc1 (stereo not given)	0.345	/
57	CC(C)C(NC(=O)c1ccc(Cl)cc1Cl)c1nc2ccccc2[nH]1 (stereo not given)	-0.315	/
58	CCN1C(=O)c2cccc3c(S(=O)(=O)NCCCn4ccnc4)ccc1c23	/	-0.2
59	c1ccc2c(c1)nc(N1CCCC1)c1nncn12	-0.37	-0.35
60	FC(F)(F)c1cccc(N=c2oc3ccccc3cc2-c2nc(-c3ccccc3)cs2)c1	1.86	/
61	COc1ccc(-c2cn3nc(N4CCCC(C(=O)Nc5cc(Cl)ccc5C)C4)sc3n2)cc1 (stereo not given)	1.04	-0.6
62	CN1C(=O)NC(c2ccccc2)C2=C1CN(CCc1ccccc1)C2=O (stereo not given)	-0.1	-0.75
63	COc1cccc(NC(=O)C(c2ccccc2)N2CCCCC2)c1 (stereo not given)	/	-0.7
64	CN1CCN(CCCNC(=O)C2Cc3ccccc3CN2C(=O)OC(C)(C)C)CC1 (stereo not given)	-0.23	/
65	Nc1nnc(SCC(=O)N2CCc3ccccc32)s1	/	-0.6
66	CCC(NS(=O)(=O)c1c(C)[nH]c(=O)[nH]c1=O)C12CC3CC(CC(C3)C1)C2 (stereo not given)	0.365	0.15
67	CSc1sc(Cl)c(Cl)c1S(=O)(=O)C(C)C	0.25	-1.1
68	O=C(CS(=O)(=O)c1ccccc1Cl)Nc1ccc(Cl)cc1Cl	-0.63	/
69	Nc1[nH]ncc1-c1ccsc1	0.21	-0.3
70	CCOC(=O)N1CCC(NC(=O)C2CCCN(C(=O)N3CCOc4ccccc43)C2)CC1 (stereo not given)	0.35	0
71	NS(=O)(=O)c1ccc(N=Cc2c(O)[nH]c3ccccc23)cc1	/	1.7
72	O=C1CCC(=O)N1C1CCCCC1	-0.11	-0.5
73	O=C(COC(=O)Cc1ccc(Br)cc1)NCc1ccco1	/	-1.1
74	COC(=O)c1c(C)[nH]c(C(=O)C(C)N2CCCc3ccccc32)c1C (stereo not given)	/	-0.85
75	CC(=O)N1CCC(C(=O)OCC#N)(c2ccccc2)CC1	/	0.65
76	CSc1cccc(N/C=C(/C#N)c2ccsc2)c1	-0.755	-0.75
77	Cc1c(C(=O)NCC(C)C)oc2c1ccc1ccccc12	/	1.75
78	Cn1nnc2c(sc3nc(N4CCOCC4)c4c(c32)CCCC4)c1=O	-1.4	1.8
79	Clc1ccc(Oc2ncnc3c2nnn3Cc2ccccc2)cc1	1.75	-0.3
80	COC(=O)c1sccc1-c1ccc(CN2CCN(c3ccccc3)CC2)o1	5.71	-0.5

# The listing continues:
No.	compound	CapD inh	AID504770
81	COC(=O)c1ccccc1Sc1nccc(-c2ccc(Cl)cc2)c1C#N	-0.105	/
82	Cc1ccc(S(=O)(=O)/N=S(\C)c2ccccc2)cc1 (stereo not given)	-0.84	-0.3
83	Cc1cc2ncn(CCc3ccccc3)c2cc1C	-0.705	1.05
84	Cc1c(C(=O)O)oc2ccc3nc(N(C)C)sc3c12	1.06	-0.3
85	CC1=NN(C(=O)COc2ccccc2C)C(O)(c2ccc(Cl)cc2)C1 (stereo not given)	-0.755	2.4
86	CN(C)S(=O)(=O)c1cccc(-c2cn3cccnc3n2)c1	100	-0.7
87	CCOc1ccc(-c2cc3cc(OC)c(OC)cc3c(Cc3cccc4ccccc34)n2)cc1	1.75	/
88	Cc1cccc2c(C(=O)O)cc(-c3cccnc3)nc12	/	-0.75

# 3 compounds out of the list, arranged by heavy-atom count, rising:
No.	compound	CapD inh	AID504770
24	CCc1ccc(NC(=O)Cc2csc(C)n2)cc1	-0.185	0.65
19	Cc1oc2c(CN(C)C)c(O)ccc2c(=O)c1-c1ccccc1Cl	/	-0.05
8	O=C(NC1=C(Cl)C(=O)c2ccccc2C1=O)OCCCc1ccccc1	-0.695	/

# Next section
No.	compound	CapD inh	AID504770
89	COc1cccc(NS(=O)(=O)c2ccc3[nH]cc(C(=O)N4CCc5ccccc54)c(=O)c3c2)c1	-0.315	0
90	C=CCN(C#N)c1nc(N2CCCCC2)nc(N2CCCCC2)n1	0.355	-0.45
91	O=C1CCC(c2ccccc2)=NN1Cc1c(F)cccc1Cl	1.05	0.1
92	COc1ccc2c(C)cc(SCC#N)nc2c1	7.47	-0.5
93	CCOC(=O)c1c(C)n(C)c2ccc(O)c(CN3CCC(C)CC3)c12	0.63	-0.2
94	O=C(CSc1nc2c(sc(=S)n2Cc2ccco2)c(=O)n1-c1ccccc1)NC1CCCC1	-0.785	/
95	Nc1ccnn1Cc1ccccn1	/	-0.65
96	Cc1sc2nc(CSC(C)C(=O)OCn3nnc4ccccc4c3=O)[nH]c(=O)c2c1C (stereo not given)	/	0
97	Cc1csc(SCCCn2c(=O)[nH]c3ccccc32)n1	/	0.55
98	Cc1ccc(-n2c(-c3cnccc3C(F)(F)F)noc2=O)c(C)c1	0.045	1.95
99	Cc1ccc2nc(NC(=O)/C=C/c3ccccc3)sc2c1	-0.72&0.085	-0.05&-0.6
100	Cc1ccc(N(C)C(=O)c2cc(S(=O)(=O)N3CCCC3)cn2C)cc1	-1.22	-0.1
101	CCOc1ccc(OCCN2C(=O)NC(Cc3c[nH]c4ccccc34)C2=O)cc1 (stereo not given)	/	-2.45
102	O=C(c1ccccc1)N(Cc1ccco1)CC(O)Cn1c2ccccc2c2ccccc21 (stereo not given)	/	-0.75
103	COc1ccc2c(c1)C(C)CC(C)(C)N2C(=O)Nc1ccccc1 (stereo not given)	1.16	/
104	COc1ccc(CC(=O)n2[nH]c(=O)c3ccccc3c2=O)cc1OC	0.565	0.2
105	COc1ccc(N2CC(NC(=O)NCC3CCCO3)CC2=O)cc1OC (stereo not given)	/	0.9
106	CC(=O)NCS(=O)(=O)c1ccc(C)cc1	-0.065	-0.8
107	CS(=O)(=O)Nc1ccc(Br)cc1	1.95	-0.95
108	CCN(CC(=O)NCc1cccs1)c1ccc(S(=O)(=O)N2CCCC2)cn1	/	0
109	Nc1nonc1-n1nnc(C(=O)N/N=C/c2cccs2)c1-c1ccccc1	-1.51	/
110	CCC(=O)NC1CC2C(=O)Nc3c(C)cccc3C2OC1=O (stereo not given)	2.02	1.1
111	Cc1ccc(-c2noc(-c3c(C)noc3C)n2)cc1	0.43	-0.25
112	CC(C)CC1NC(=O)N(C)C1=O (stereo not given)	-0.65	-0.85
113	O=C(O/N=C1\CCCCC1c1ccc([N+](=O)[O-])cc1[N+](=O)[O-])C1CCCCC1 (stereo not given)	-0.31	/
114	COC(=O)C(C)(C)Oc1ccc(C)c2c1CCC2	0.19	/
115	CCCn1c2ccccc2c2cnn(CC(=O)N(C)Cc3ccccc3)c(=O)c21	23.8	0.5
116	CCN(CCOC(=O)NNC(=O)c1ccccc1NC(=O)c1cccs1)c1ccc(N=Nc2ccc([N+](=O)[O-])cc2)cc1	-0.985	/
117	Cc1nc2ccc(S(=O)(=O)NC(CC(C)C)C(=O)NC3CCCCCC3)cc2s1 (stereo not given)	0.59	-1.05
118	Cn1ccc(P(=O)(N2CCOCC2)N2CCOCC2)c1	/	0.3
119	Cc1nc2c(C(=O)NCCCN3CCCC3)cnn2c(C)c1Cc1ccccc1	37.6	-0.6
120	O=C1/C(=C/NCc2ccco2)S(=O)(=O)N(Cc2ccccc2)c2ccsc21	6.58	-0.6
121	CN(C)S(=O)(=O)c1cc(C(=O)NCc2ccncc2)c(Cl)cc1Cl	-0.47	-0.7

# Screens as filed in PubChem.
